Bioassay records as filed in PubChem.
BJeLR viability: BJeLR cell viability loss. BJeLR (HRASV12) viability, CellTiter-Glo ATP luminescence, 48 h; reference of the scale not given here. inhibition, % (no concentration beside the values). hit rate 0.17% among 300,000. AID 1554;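 active means replicate mean above 50%; inconclusive means above 50% but judged a plate artefact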;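 further: 50 nL library stock added to about 25 µL; numbers are from one replicate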
PrP 5UTR inh: suppresses PrP 5' UTR mRNA reporter expression | cell-based PrP 5' UTR mRNA reporter, plate reader | inhibition, % (concentration not given with the values) | hit rate 0.35% among 340,000 | AID 488862;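 active means every replicate at 50% or more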;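 further: 0 = median of the neutral control wells; tested in H4 reporter cells; numbers are from one replicate; inactives centre near -14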
Mtb hypoxia inh: Mtb hypoxia fluorescent reporter inhibition | M. tuberculosis hypoxia-regulated fluorescent reporter, fluorescence | fluorescence inhibition, % (no concentration beside the values) | hit rate 0.1% among 300,000 | AID 1159583;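 active means 35 to 45% if threefold the growth effect, above 45% if 1.5-fold the growth effect; inactive means the rest, general growth blockers included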;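 further: wells of about 50 µL received 100 nL stock; 0% = vehicle wells and 100% = reference inhibitor wells; whole bacteria with a GFP reporter of the hypoxia response; strong numbers were not always called active; many hits fall short of the cut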
Sa ugtP lethal: kills S. aureus RN4220 lacking UgtP | AID 1259309 | hit rate 0.54% among 330,000 | growth inhibition, % (no concentration beside the values) | S. aureus RN4220 ugtP deletion, OD600 growth, 16 h; some inactives read as strong as hits;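 active means z-score under -3 and OD600 up to 0.15 on both plates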;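 further: plate controls were untreated wells for no effect and antibiotic for full effect; wells of about 80 µL received 100 nL stock; the first replicate is given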
Autofluor counter: counter-screen for toxin protease inhibitors: compound fluorescence. hit rate 3.1% among 360,000. compound autofluorescence counterscreen, microsphere flow cytometry; active compounds read high. fluorescence intensity (no concentration beside the values). AID 624483;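 active means at least 3 SD above the mean of all compounds, about 16000 in these data; inconclusive means too few beads counted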;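 further: 100 nL of 1 mM stock went into each well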
Sa RN4220 lethal: S. aureus RN4220 growth inhibition | hit rate 0.33% among 330,000 | inhibition, % (no concentration beside the values) | OD600, 16 h;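 active means z-score of -3 or lower and OD600 up to 0.18 on both plates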;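 further: plate controls were untreated cells for no effect and reference antibiotic for full effect; stock transfer was 100 nL into about 80 µL; one replicate is shown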
Mtb hypoxia inh growth: also measured in Mtb hypoxia inh; calls as there; growth inhibition, %; measured here: M. tuberculosis growth (absorbance);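 0% = vehicle and 100% = reference antibiotic; read after six days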
Starred values were filed as active, the others as inactive; ? = inconclusive; . = no result given. Compounds were not picked by outcome. About 4% of those tested had a hit in this group.

SMILES	BJeLR viability	PrP 5UTR inh	Mtb hypoxia inh	Mtb hypoxia inh growth	Sa ugtP lethal	Autofluor counter	Sa RN4220 lethal
Cc1noc(C)c1COC(=O)c1csc2c1CCCC2	.	-2	1	-10	13	?	8.2
CCN/N=C(\Cc1nc2ccccc2[nH]1)c1ccccc1	7	-31	.	.	.	4382	.
C=C(C)C1CC=C(C)/C(=N/NC(=O)c2cccs2)C1 (configuration not stated)	23	-61	.	.	.	2060	.
CCOC(=O)/C=C1/SCC(=O)N1CC(=O)NC12CC3CC(CC(C3)C1)C2	.	-5	-4	10	-3	4025	0.4
COc1ccc(C=NNC(=O)C(=O)N2CCCCCC2)cc1	.	.	0	-1	7	.	0.0
O=C(NCCN1CCOCC1)C1CCCN(S(=O)(=O)c2ccc(F)cc2)C1 (configuration not stated)	3	-21	5	5	1	5641	-2.1
Cc1sc2nc(SCc3nc(-c4ccccc4)no3)n(-c3ccccc3)c(=O)c2c1C	-9	-12	16	8	1	2828	-10
CS(=O)(=O)n1nc(-c2ccc(Cl)cc2)nc1SCc1ccccc1	-5	-64	-5	1	-16	24875*	-1.8
CC(C)c1ccc2c(c1)C(N1CCNCC1)Cc1ccc(F)cc1S2 (configuration not stated)	2	.	-2	-3	-18	.	56
Cc1nnc(SCC(=O)Nc2ncc(Cc3ccc(F)cc3)s2)n1N	-1	-22	.	.	-8	4771	-1.2
CCOC(=O)c1c(C)oc2cc(Br)c(OC)cc12	-1	-15	2	5	-4	25149*	6.6
Cc1ccc(/C=C2/SC(=O)NC2=S)o1	.	-27	-3	15	3	2530	16
CN(C)S(=O)(=O)c1ccc2nnn(OCC(=O)NC34CC5CC(CC(C5)C3)C4)c2c1	-4	-32	8	6	-3	2156	9.6
C=CCN(CC=C)S(=O)(=O)c1ccc(NC(=S)NC(=O)Cc2ccc(OC)cc2)cc1	-7	-8	1	4	32	14004	-6.6
CC(=O)N1CCc2cc(S(=O)(=O)CCC(=O)N(C)c3cc(C)ccc3C)ccc21	-9	-25	3	4	7	5018	0.9
COc1ccc(Nc2nc(N)nc(CN3CCc4ccccc4C3)n2)cc1	0	5	.	.	10	5913	-2.7
COc1ccc(/C=N/NC(=O)CSCc2ccc([N+](=O)[O-])cc2)cc1OC	17	1	.	.	.	10555	.
CCCC(=O)N(CCN1CCOCC1)c1nc2c(OCC)cccc2s1	-12	-4	12	6	1	5162	5.1
CSc1ccccc1NC(=O)CN(C)CC(=O)c1c(C)[nH]c2ccccc12	.	-12	9	9	-11	8625	0.9
COc1cccc(C=Nn2c(SC)nnc2-c2ccccc2)c1O	.	.	0	-1	-6	.	4.5

Full records as entered above.
`CC(=O)N1CCc2cc(S(=O)(=O)CCC(=O)N(C)c3cc(C)ccc3C)ccc21` as listed: BJeLR viability = -9; PrP 5UTR inh = -25; Mtb hypoxia inh = 3; Mtb hypoxia inh growth = 4; Sa ugtP lethal = 7; Autofluor counter = 5018; Sa RN4220 lethal = 0.9
`COc1ccc(/C=N/NC(=O)CSCc2ccc([N+](=O)[O-])cc2)cc1OC` as listed: BJeLR viability = 17; PrP 5UTR inh = 1; Mtb hypoxia inh = .; Mtb hypoxia inh growth = .; Sa ugtP lethal = .; Autofluor counter = 10555; Sa RN4220 lethal = .

Following part.
SMILES	BJeLR viability	PrP 5UTR inh	Mtb hypoxia inh	Mtb hypoxia inh growth	Sa ugtP lethal	Autofluor counter	Sa RN4220 lethal
Cc1ccccc1C(=O)O/N=C1\CCS(=O)(=O)c2sccc21	4	-69	.	.	.	2111	.
COc1cccc(Cn2c(=O)c3[nH]cnc3n(-c3ccccc3C)c2=O)c1	-4	-10	11	0	0	4000	4.7
C=CCN1C(=O)/C(=C\c2cc(Br)c(OCc3ccccn3)c(OC)c2)SC1=S	11	-4	3	0	-17	2121	5.7
Cc1c(Cc2ccccc2)c(=O)oc2c(C)c(OCC(=O)NCc3ccccn3)ccc12	1	-8	7	0	1	4094	1.7
CC(C)CCn1cnc2c(sc3nc4c(cc32)CSC(C)(C)C4)c1=O	-1	-101	11	3	2	2565	6.7
O=c1[nH]c(O)c(C=Nc2ccccc2[N+](=O)[O-])c(=O)[nH]1	-1	.	3	4	0	.	1.5
Cc1cccc(Cc2c(C)nc3nc(SCC(=O)NCc4ccco4)nn3c2C)c1	-10	-21	5	6	11	4397	-1.2
O=C1c2cccnc2Nc2ccccc2N1CCCF	-8	-12	.	.	-1	4637	2.5
COc1cccc2cc(C(=O)Nc3ccccc3C)/c(=N/NS(=O)(=O)c3ccccc3)oc12	-7	-4	.	.	.	5251	.
CCn1cc(C(=O)O)c(=O)c2cnc(N3CCN(C(=S)NC(=O)c4ccccc4Cl)CC3)nc21	14	.	-7	-3	94*	.	99*
CCCOc1cccc(C(=O)N(Cc2cccs2)C2CCS(=O)(=O)C2)c1 (configuration not stated)	9	-14	-8	-2	0	3070	-3.6
O=C(O)/C=C/c1ccc2noc(-c3ccccc3)c2c1	-7	-27	15	-5	9	?	4.4
COc1ccc(C2CC(=O)Nc3cc(OC)c(OC)cc32)cc1Br (configuration not stated)	-7	21	2	-5	9	.	2.1
CCOC(=O)N1CCC(NC(=O)c2cnn3ccccc23)CC1	6	-35	3	5	14	5376	7.9
Cc1cc(C)cc(NS(=O)(=O)c2csc(C(N)=O)c2)c1	8	-13	1	-7	0	2786	3.2
O=C(CN1C(=O)COc2ccc(Cl)cc21)N1CCOCC1	0	-6	3	11	4	4692	1.6
CCOC(=O)C1CCCN(C(=O)c2cn(C)c(=O)c3cc(OC)c(OC)cc23)C1 (configuration not stated)	2	-23	-2	0	1	6845	1.0
CCOC(=O)c1c(NC(=O)C2Cc3ccccc3C(=O)O2)sc2c1CCCC2 (configuration not stated)	-10	4	20	14	3	3453	6.6
COc1ccc(Cl)cc1NC(=O)CC(C)=NNC(=O)COc1ccc(C)cc1	.	.	13	3	13	.	1.4
COc1ccc(OC)c(NC(=O)CS(=O)(=O)c2ccccc2)c1	3	-35	9	11	2	9571	2.1
CN(C)c1ccc(N2C(=NC(=O)CCc3ccccc3)SC3CS(=O)(=O)CC32)cc1 (configuration not stated)	-1	1	2	-1	8	4285	6.7
O=C(CCN1C(=O)c2ccccc2C1=O)Nc1cccnc1	2	-14	4	13	12	15621	6.7
CCN(CC)c1ccc(N2C(=NC(=O)C3CCCO3)SC3CS(=O)(=O)CC32)cc1 (configuration not stated)	4	-16	3	2	1	5623	3.5
CC1(C)CC2(C)Nc3ccccc3N2C(=S)N1 (configuration not stated)	9	8	-5	6	6	2484	8.0
O=C(OCC(=O)c1cccs1)c1ccc(NC(=O)c2ccco2)cc1	4	-25	5	7	16	4447	4.3
O=C(NCc1ccc2c(c1)OCO2)C1CC(=O)N(CCc2ccccc2)C1 (configuration not stated)	-1	-19	-5	5	-1	5216	2.2
COc1ccc(C(=O)NN=Cc2cn[nH]c2-c2ccc(OC)cc2OC)cc1	.	.	5	1	1	.	2.8
C=CCn1c(CNc2ccccc2)nnc1SCC(=O)N/N=C/c1ccc(O)cc1O	5	-8	.	.	.	2910	.
O=S1(=O)CCC(NC(=S)N2CCCCC2)C1 (configuration not stated)	-15	-15	6	5	1	2477	1.3
Cc1ccccc1C(=O)NNC(=O)C12CC3CC(CC(C3)C1)C2	-10	88*	-7	4	11	2428	3.5
FC(F)Sc1ccc(N=C2NN=C(c3ccc4c(c3)OCCO4)CS2)cc1	1	-13	11	5	-1	8504	3.0
COc1ccc(-n2nc3cc(C)c(NC(=O)c4cccnc4)cc3n2)cc1	4	-33	18	5	-6	2775	-9.2
COc1ccc(CNc2nc(-c3cccnc3)nn2C(=O)C(C)C)cc1	-1	-21	4	1	17	3267	5.6
COc1ccc(-n2c(Cc3cc(=O)[nH]c(=O)[nH]3)nnc2SCC(=O)N2CCC(C)CC2)cc1	.	-33	.	.	5	5501	1.1
Cc1ccc(-n2c(-c3ccccc3)n[nH]c2=S)c(C)c1	0	-19	-1	4	-1	4272	-1.9
Nc1ncnc2c1ncn2[C@@H]1O[C@H](CNC(=O)[C@@H](N)Cc2ccccc2)[C@@H](O)[C@H]1O	.	-4	-7	0	2	3961	2.0
CC(=O)c1ccc(NC(=O)C2CCCN2S(=O)(=O)c2ccc(F)cc2)cc1 (configuration not stated)	-2	-15	.	.	3	6120	2.0
COc1ccc(N2C(=O)c3ccc(NC(C)=O)cc3C2=O)cc1	7	-10	11	19	2	3891	1.7
C/C(=N\NC(=O)c1ccn(C)n1)c1ccc(NC(=O)C2CCCC2)cc1	-7	-13	.	.	.	7856	.
CCCC(=O)Nc1ccc2c(c1)nc(CN1CCN(C(C)=O)CC1)n2C	-11	-17	.	.	-2	5805	-0.7
CN1C(=O)C2(NC(=O)c3ccccc3N2C)c2ccccc21 (configuration not stated)	-6	-10	-7	3	9	4616	2.6
COc1ccc2c3c(cccc13)C(=O)CC2	7	1	7	9	23	3036	4.7
Cc1ccc(NC(=O)OCCNC(=O)OC(C)C)cc1	-1	-31	3	2	1	5003	0.7
O=C(N/N=C/c1cc([N+](=O)[O-])ccc1O)c1c[nH]c2ccccc12	7	-10	.	.	.	4837	.
Nn1c(CSc2ccccn2)nc2ccccc2c1=O	-1	-32	5	8	4	2522	4.9
Cc1c(C=O)c2ccccc2n1Cc1ccccc1F	0	-11	4	2	2	5086	1.3
COc1ccc(CN2C(=O)NC(=O)/C(=C\c3ccc(OC)c(OC)c3OC)C2=O)cc1	-3	-21	7	5	9	4381	5.9
CN(C)S(=O)(=O)c1cccc(NC(=O)COc2ccc3ccccc3c2)c1	.	-26	15	4	5	3871	8.4
Cc1cc(NC(=O)C(C)C)ncc1NC(=O)c1ccccn1	-9	-21	0	2	2	2619	-0.3
Cc1ccc(OCCC(=O)OCC(=O)N2CCN(S(=O)(=O)c3ccc(C)cc3C)CC2)cc1	-4	-20	0	2	3	6861	3.0
Cc1ccc(C)c(OCCC(=O)N2CCN(S(=O)(=O)c3cc(C)ccc3C)CC2)c1	3	-9	-3	6	-1	6278	3.2
O=C(NCc1cccnc1)C1CCC(c2ccc(Cl)cc2)CC1 (configuration not stated)	5	-7	21	10	19	3975	-5.8
CC(C)n1cc(C(=O)NC2CC(C)(C)Cc3c2cnn3-c2ccccc2)cn1 (configuration not stated)	3	-22	5	8	10	5195	2.5
Cc1cccc(-c2nc3ccccc3c(=O)n2NC(=O)/C=C/c2ccc([N+](=O)[O-])cc2)c1	3	-15	-4	-19	6	2728	0.8
Cc1cc(C)c2ccc(=S)[nH]c2n1	7	-9	11	14	10	3485	5.4
COc1ccc(N(CC(=O)NCc2ccncc2)S(=O)(=O)c2ccccc2[N+](=O)[O-])c(OC)c1	4	-9	13	6	-5	2406	6.8
COc1cc(/C=C(/NC(=O)c2ccccc2)C(=O)Nc2cccc(O)c2)c([N+](=O)[O-])cc1OC	10	-17	10	7	3	11288	3.5
COC(=O)C1CC(=NNS(=O)(=O)c2ccc(C)cc2)c2sccc2C1 (configuration not stated)	.	.	0	1	-1	.	1.8
O=C(O)CNC(=O)CC1S/C(=N/N=C2\CSC(=O)N2)NC1=O (configuration not stated)	-3	-26	.	.	.	2534	.
COc1ccc(C(CNC(=O)c2oc3c(Cl)cccc3c2C)N2CCCC2)cc1 (configuration not stated)	-6	-19	9	3	-3	8376	-0.1

Next section:
SMILES	BJeLR viability	PrP 5UTR inh	Mtb hypoxia inh	Mtb hypoxia inh growth	Sa ugtP lethal	Autofluor counter	Sa RN4220 lethal
O=C(COC(=O)c1cc(Cl)nc(Cl)c1)NC1CCCCCC1	.	-8	7	2	4	4213	3.7
COc1ccc(/C=C2/SC(=S)N(CCCC(=O)Nc3ccc(O)cc3)C2=O)cc1	-12	10	8	4	-14	4808	27
O=C(CSc1nnc(CNC(=O)c2ccc(F)cc2)o1)NCc1ccc2c(c1)OCO2	1	-2	6	1	-2	5633	-1.6
CC(=O)c1c(N2CCOCC2)nc(=O)n(-c2ccccc2)c1C	0	-12	15	7	-1	10651	1.6
